KCNQ2 block = KCNQ2 potassium channel inhibitors, primary screen, cell-based, CHO-K1, FluxOR thallium flux, B-score (AID 2156); 310,000 tested, 1.1% active; 20 min; stronger effect = lower value; only compounds with negative scores are shown here; some inactives read as strong as hits; Potassium voltage-gated channel subfamily KQT member 2 (Rattus norvegicus), O88943; B-score at 10 µM;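 active means fluorescence ratio B-score at most minus 3 library SDs, with starting brightness B-score within 2 library SDs, cut at about -5.5 in these data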
Target sequence (O88943 whole entry, looked up): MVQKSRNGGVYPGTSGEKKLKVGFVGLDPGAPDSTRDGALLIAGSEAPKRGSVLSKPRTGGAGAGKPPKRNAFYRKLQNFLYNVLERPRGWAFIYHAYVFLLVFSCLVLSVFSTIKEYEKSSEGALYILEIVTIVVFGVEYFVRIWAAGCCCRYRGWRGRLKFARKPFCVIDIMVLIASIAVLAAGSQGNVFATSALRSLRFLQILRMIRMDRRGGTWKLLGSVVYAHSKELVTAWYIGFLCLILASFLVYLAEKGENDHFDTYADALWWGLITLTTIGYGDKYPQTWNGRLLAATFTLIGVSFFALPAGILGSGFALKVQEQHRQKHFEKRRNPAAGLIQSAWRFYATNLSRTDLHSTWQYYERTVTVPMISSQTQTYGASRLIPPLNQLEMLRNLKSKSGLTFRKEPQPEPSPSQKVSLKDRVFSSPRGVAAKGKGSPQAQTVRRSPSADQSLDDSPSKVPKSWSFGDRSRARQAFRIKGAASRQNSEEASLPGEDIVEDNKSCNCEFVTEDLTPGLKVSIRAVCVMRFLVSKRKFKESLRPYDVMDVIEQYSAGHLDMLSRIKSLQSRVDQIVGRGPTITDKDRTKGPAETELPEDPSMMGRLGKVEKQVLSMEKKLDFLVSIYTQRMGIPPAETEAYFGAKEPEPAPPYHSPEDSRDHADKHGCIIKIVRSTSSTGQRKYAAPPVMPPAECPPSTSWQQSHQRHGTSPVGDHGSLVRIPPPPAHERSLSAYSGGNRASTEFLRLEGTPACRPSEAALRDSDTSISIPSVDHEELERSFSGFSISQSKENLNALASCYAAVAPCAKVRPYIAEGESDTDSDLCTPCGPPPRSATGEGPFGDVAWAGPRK
KCNQ2 block baseline = recorded beside KCNQ2 block, whose call it bears; B-score; measured here: initial fluorescence intensity artifact check;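 brightness before thallium and not channel activity; 0 = typical well and far values either way flag optical interference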
* = called active by the depositor; i = inactive. These rows are one share of the data. The share of hits here may be higher or lower than overall.

KCNQ2 block	KCNQ2 block baseline	Structure
i	2.4	Nc1nc(N2CCN(Cc3ccccc3)CC2)n[nH]1
i	-0.13	S=C1NC(c2ccccc2)=CC(c2ccccc2)N1 (stereo not drawn)
i	-1.4	Cc1ccc(NC(=O)C(c2ccc(Cl)cc2Cl)N2CCCC2)cc1 (stereo not drawn)
i	-0.02	CC(C)CNS(=O)(=O)c1ccc(CCC(=O)NC2CCCCC2)cc1
i	2.2	CCN1C(=O)c2cccc3cccc1c23
i	-1.3	O=C(CSc1nnc(CN2CCOCC2)n1-c1ccc(Cl)cc1)Nc1cc(Cl)ccc1O
i	3.2	O=C(N/N=C/c1cccc([N+](=O)[O-])c1)c1cc2ccccc2o1
i	1.2	Cc1cc(NC(=O)CSc2nnc(-c3ccc(O)cc3)o2)no1
i	2.7	CCOC(=O)N1CCC(N2Cc3cccc(C(=O)Nc4ccccc4OC)c3C2=O)CC1
i	3	O=c1[nH]c(=O)c2nc3ccccc3nc2[nH]1
i	-0.36	Cc1cc(/C=N/NC(=O)c2c(Br)cnn2C)c(C)n1-c1cccc(Br)c1
i	-0.45	C=CCN1CCN(C(c2ccccc2)c2nnnn2CCC(C)C)CC1 (stereo not drawn)
i	1.5	CCCCCCCCCCCCN1[C@@H](CC(=O)OC)c2cc(C(F)(F)F)ccc2S1(=O)=O
i	-0.64	CCOc1cc(C2CC(=O)NC3=C2C(=O)C(C(=O)OC)C(C)C3)cc(Br)c1O (stereo not drawn)
i	-0.57	CCOC(=O)C1=C(C)Nc2ccccc2N=C1NC(=O)Cc1ccc(OC)cc1
i	0.01	O=C(Nc1cccnc1)C1(c2ccccc2)CCCC1
i	1.4	COc1cccc(CN(C)C(=O)c2sccc2-c2ccccc2)c1OC
i	0.71	CCSc1nc2ccc(C)cc2cc1C#N
i	0.05	COc1ccc(NC(=S)NCCN2CCOCC2)cc1
i	0.12	COc1ccccc1/C=C/C1NC(=O)NC(C)=C1C(=O)OC(C)C (stereo not drawn)
i	-0.73	COc1cccc(OCC(=O)Nc2ccccc2-c2ccccc2)c1
i	2	CC(=O)Nc1ccc(N(C)C)cc1[N+](=O)[O-]
i	1.9	COC(=O)CNC(=O)CSc1nnc2cc(C)c3ccccc3n12
i	-1.1	O=P(c1ccccc1)(c1ccccc1)c1nc(-c2ccccc2)oc1NCc1ccccc1
i	1.1	Cn1c(SCC(=O)Nc2cccc(C(=O)O)c2)nnc1-c1cc2cc(Br)ccc2o1
i	1.1	COc1ccc(CNC(=O)c2ccc(SC)cc2OC)cc1
i	0.24	Cn1c(=O)c(C(=O)CCl)c(N)n(Cc2ccccc2)c1=O
i	-0.5	O=C(Nc1ccc(Cl)cn1)c1ccc2[nH]c(=O)c(=O)[nH]c2c1
i	-0.65	COc1ccc(CCNC(=O)c2cc(COc3c(C)cccc3C)on2)c(OC)c1
i	-0.01	O=C(c1cc(-c2ccc(Cl)cc2)n(-c2ccc(Cl)c(Cl)c2)n1)N1CCOCC1
i	1.9	CCOc1ccc(-c2nnn(CC(=O)NCc3ccc4c(c3)OCO4)n2)cc1
i	1.2	COc1cccc(NCc2cc(=O)oc3cc(C)c(C(C)C)cc23)c1

Copied from above, six compounds:
KCNQ2 block	KCNQ2 block baseline	Structure
i	0.24	Cn1c(=O)c(C(=O)CCl)c(N)n(Cc2ccccc2)c1=O
i	-0.5	O=C(Nc1ccc(Cl)cn1)c1ccc2[nH]c(=O)c(=O)[nH]c2c1
i	-0.65	COc1ccc(CCNC(=O)c2cc(COc3c(C)cccc3C)on2)c(OC)c1
i	-0.01	O=C(c1cc(-c2ccc(Cl)cc2)n(-c2ccc(Cl)c(Cl)c2)n1)N1CCOCC1
i	1.9	CCOc1ccc(-c2nnn(CC(=O)NCc3ccc4c(c3)OCO4)n2)cc1
i	1.2	COc1cccc(NCc2cc(=O)oc3cc(C)c(C(C)C)cc23)c1

Next records follow:
KCNQ2 block	KCNQ2 block baseline	Structure
i	-0.31	O=C(Nc1cccc(C(F)(F)F)c1)C(SCCO)c1ccccc1 (stereo not drawn)
i	0.07	CCOc1ccccc1Oc1nc(-c2ccccc2O)nc2ccccc12
i	0.47	COc1cc2c(cc1OC)C1C/C(=N\O)C(CC(C)C)CN1CC2 (stereo not drawn)
i	1.4	Clc1ccc(Nc2nc(C3CC3)cs2)cc1
i	1	CCOC(=O)Cn1c(-c2ccc(OC)cc2)c(-c2ccc(OC)cc2)nnc1=O
i	1.9	COc1ccc(NC(=O)c2nc(C)c(C3(C)CC(c4ccccc4)=NO3)s2)cc1 (stereo not drawn)
i	1.5	O=C(Nc1ccccc1)N(O)c1ccc(Cl)cc1
i	-0.14	CSc1ccccc1NC(=O)Nc1ccccc1Cl
i	1.1	CC1CC(=O)N(CC(=O)Nc2ccc3c(c2)OCO3)c2ccccc2S1 (stereo not drawn)
i	-0.11	COc1ccccc1NC(=O)C1CCCN(C(=O)NCc2ccccc2)C1 (stereo not drawn)
i	0.21	CCCN1Cc2cccc(C(=O)NCCc3cccc(C)c3)c2C1=O
i	0.04	COC(=O)CNc1nc(Cl)nc(NC2CCCCC2)n1
i	-0.01	CC1(C)CC(=O)C(C=NCc2ccccn2)=C(O)C1
i	-1.1	CCn1c(SCc2ccccc2)nc2cc(S(N)(=O)=O)ccc21
i	1.5	CCOc1ccc(NC(=O)CCC(=O)c2ccc(-c3ccccc3)cc2)cc1
i	-0.34	COc1ccc(-n2c(C)cc(C(=O)COC(=O)Cn3cnc4ccccc43)c2C)cc1
i	0.18	Cc1cc([N+](=O)[O-])c2[nH]c(C(=O)N/N=C/c3ccccc3C(=O)O)c(-c3ccccc3)c2c1
i	-1.9	Cc1nn(C(C)C(=O)NC(C)CCc2ccccc2)c(=O)c2cc3occc3n12 (stereo not drawn)
i	0.79	CN1CC(c2ccccn2)C2(SC(=S)N(Cc3ccccc3)C2=O)C12C(=O)Nc1ccccc12 (stereo not drawn)
i	0.63	Cc1c(C(=O)N2CCOCC2)oc2ccc(Br)cc12
i	0.02	Cc1ccc(CNc2nc(C)c(C(=O)N(C)C)s2)cc1
i	0.98	O=C(NC1CCCCC1)c1cc(-c2cccc(Cl)c2)on1
i	0.05	CC(C)(C)NC(=O)N1CCN(c2nc(-c3ccccc3)ns2)CC1
i	2.4	Cc1cc(C)c2cc3c(N)c(C(=O)N4CCc5ccccc5C4)sc3nc2c1
i	1.8	Cc1[nH]nc2c1C(c1ccccc1F)NC2=O (stereo not drawn)
i	-1.5	COc1ccccc1N=C(C)C1=C(O)CC(c2ccccc2)CC1=O (stereo not drawn)
i	0.04	COC(=O)c1c(NC(=O)CN2CCC3(O)CCCCC3C2c2ccccc2OC)sc(C)c1C (stereo not drawn)
i	5.4	CCCCOc1ccc(-c2nnn(C(C)(C)C(=O)OC)n2)cc1
i	-0.3	COc1ccc(COC(=O)NNC(=O)c2ccc(OC)cc2)cc1
i	3.5	CCCCNC(=O)NS(=O)(=O)c1ccc(NC(=O)C(NC(N)=O)C(C)CC)cc1 (stereo not drawn)
i	-0.79	CCCn1c(-c2cc(OC)c(OC)c(OC)c2)nc2nc3ccccc3nc21
i	3.1	COC(=O)C1CN(C(=O)COc2cc(C)cc(C)c2)c2ccccc2O1 (stereo not drawn)

The final 2 entries of the section before open the next one.
KCNQ2 block	KCNQ2 block baseline	Structure
i	-0.79	CCCn1c(-c2cc(OC)c(OC)c(OC)c2)nc2nc3ccccc3nc21
i	3.1	COC(=O)C1CN(C(=O)COc2cc(C)cc(C)c2)c2ccccc2O1 (stereo not drawn)
i	0.28	CCC/S(CC1CC1(Cl)Cl)=N\S(=O)(=O)c1ccc(C)cc1 (stereo not drawn)
i	-1.2	Cc1ccc2c(c1)N(CC(=O)NCCCc1ccccc1)C(=O)c1cccnc1O2
-5.6*	-1.4*	COc1ccccc1N1CCN(c2ccc3cc(S(=O)(=O)N4CCCCC4)ccc3n2)CC1
i	-0.56	O=C(O)CCCn1cc(NC(=O)c2ccc(Br)o2)cn1

Molecules shown so far containing a thiophene ring, fused or not (3):
KCNQ2 block	KCNQ2 block baseline	Structure
i	1.4	COc1cccc(CN(C)C(=O)c2sccc2-c2ccccc2)c1OC
i	2.4	Cc1cc(C)c2cc3c(N)c(C(=O)N4CCc5ccccc5C4)sc3nc2c1
i	0.04	COC(=O)c1c(NC(=O)CN2CCC3(O)CCCCC3C2c2ccccc2OC)sc(C)c1C (stereo not drawn)

Source: PubChem
